From PubChem
Mtb growth: M. tuberculosis H37Rv growth inhibitors, H37Rv strain (AID 1626). M. tuberculosis H37Rv growth inhibition; higher % means a stronger effect. inhibition, % at 10 µM; hits with a dose series show IC50 in µM. 0.95% of 220,000 active;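 active = confirmed in a dose series; inconclusive = inhibition above 80% but not taken into the dose series; inactive = below 80% or under 30% at every dose of the series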;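 also: bacteria incubated seven days before Alamar blue readout; 0% = bacteria only wells and 100% = bacteria with antibiotic wells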
YopH inh: YopH (Yersinia) phosphatase inhibition | 0.16% of 140,000 active | fluorescence Ex485/Em525 | inhibition, %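 (about 10 µM by stock and volumes)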 | AID 898;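 active = inhibition of 50% or more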;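 also: controls were vehicle for no effect and minimum signal wells for full effect; inactives centre near -20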
Mtb bLac sens: beta-lactam sensitization of Mtb H37Rv; M. tuberculosis H37Rv growth with meropenem, percent inhibition; hits of this screen are not shown here; inhibition, % at 25 µM; 0.27% of 330,000 active; AID 434955;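 active = about 74% or more and at least 40 points above the plate without the antibiotic, then above 30% in a dose series; inconclusive = first-round hits that could not be retested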;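 also: growth measured after seven days incubation then overnight dye step; 0% = bacteria only wells and 100% = bacteria with antibiotic; twin plates without the antibiotic show which effects depend on it; some results filed as inactive read as strong as hits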
RecA intein inh: blocks M. tuberculosis RecA intein splicing | P9WHJ3 | cell-free RecA intein splicing, fluorescence | inhibition, %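 (about 9 µM by stock and volumes)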 | 0.75% of 290,000 active | AID 2221; in the data active = inhibition above about 30%; inconclusive = no clear call, values can overlap the other calls;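 also: 0% = vehicle wells and 100% = reference inhibitor control wells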
Target sequence (P9WHJ3 whole entry, looked up): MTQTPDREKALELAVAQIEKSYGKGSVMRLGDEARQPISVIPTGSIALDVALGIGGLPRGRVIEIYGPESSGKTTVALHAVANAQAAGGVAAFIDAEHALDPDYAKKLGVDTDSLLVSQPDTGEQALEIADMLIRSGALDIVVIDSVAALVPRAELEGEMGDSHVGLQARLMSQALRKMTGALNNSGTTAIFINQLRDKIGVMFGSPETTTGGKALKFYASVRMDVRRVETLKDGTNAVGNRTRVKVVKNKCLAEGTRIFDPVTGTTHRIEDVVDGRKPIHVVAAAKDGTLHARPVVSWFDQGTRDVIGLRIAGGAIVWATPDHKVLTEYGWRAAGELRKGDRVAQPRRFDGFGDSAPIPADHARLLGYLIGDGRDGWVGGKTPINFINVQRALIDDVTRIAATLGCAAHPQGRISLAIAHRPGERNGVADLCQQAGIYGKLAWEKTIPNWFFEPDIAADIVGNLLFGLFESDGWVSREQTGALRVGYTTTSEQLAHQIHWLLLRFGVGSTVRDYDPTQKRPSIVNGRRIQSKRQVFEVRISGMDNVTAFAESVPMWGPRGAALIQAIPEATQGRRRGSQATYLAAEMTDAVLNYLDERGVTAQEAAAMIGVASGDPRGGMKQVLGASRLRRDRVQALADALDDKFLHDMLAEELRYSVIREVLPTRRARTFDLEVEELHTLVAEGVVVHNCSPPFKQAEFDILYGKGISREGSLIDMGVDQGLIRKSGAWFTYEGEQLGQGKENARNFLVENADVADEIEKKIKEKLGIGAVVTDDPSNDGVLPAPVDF
Arbovirus anti: antivirals against arbovirus infection; arbovirus infection cell-based antiviral screen; inhibition, % at 10 µM; 0.37% of 200,000 active;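 active = inhibition from about 30%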;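 also: bluetongue infection of BSR cells; cell survival read as ATP light after 72 h; 0% = infected wells without compound and 100% = uninfected wells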
Arbovirus anti repeat: recorded beside Arbovirus anti, whose call it bears; inhibition, %; measured here: 10K subset replicate screen; many hits read low in the repeat;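 first of two repeat runs on a subset; 0% = infected and 100% = uninfected wells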
* marks the source's active call; other numbers are inactive results; ? = inconclusive; nt = not tested or not shown. These rows are one share of the data. The share of hits here may be higher or lower than overall.

SMILES	Mtb growth	YopH inh	Mtb bLac sens	RecA intein inh	Arbovirus anti	others
CCOC(=O)N1CCC(NC(=O)c2cc(C(=O)Nc3cccc(C(F)(F)F)c3)ccc2CO)CC1	0%	nt	13	2.3	21
CCN(CC)S(=O)(=O)c1ccc2oc(C(=O)NCCCN3CCOCC3)c(C)c2c1	9%	-19	-1	-0.1	13
O=C(c1cccnc1)N1CCN(c2ccccc2Cl)CC1	-4%	nt	7	-1.3	nt
COc1ccc(/C=C(\NC(=O)c2ccccc2)C(=O)NCCC(=O)O)cc1	-10%	nt	-4	0.5	6
Cc1ccc(CN2CCN(CC(=O)NC(C)c3ccc4c(c3)OCCO4)C2=O)cc1 (stereo not given)	0%	-21	3	-2.3	0
CC(C)CNC(=O)C(=O)NCCC1CCCCN1S(=O)(=O)c1cccs1 (stereo not given)	nt	nt	1	0.1	nt
Cc1onc(-c2ccccc2)c1C(=O)Nc1ccccc1C#N	1%	nt	0	0.2	-3	Arbovirus anti repeat=-2
CCn1c(CC(=O)Nc2ccc(F)cc2)nnc1SCC(=O)NC1CCCC1	nt	nt	1	1.5	nt
CCCCCOCC1CC(C/C(C)=N/NC(N)=S)C(=O)O1 (stereo not given)	41%	-13	-1	-1.3	-6
CCCCNC(=O)CC1N=C2c3ccccc3N=C(SCC(=O)Nc3cccc(C)c3)N2C1=O (stereo not given)	2%	-5	-3	3.0	-5
CC1CN(C(=O)/C(=C/c2ccco2)NC(=O)c2ccccc2)CC(C)O1 (stereo not given)	nt	nt	-3	17	nt
O=[N+]([O-])c1ccccc1OCCOCCOc1cccc2cccnc12	-5%	-25	0	0.3	-8
COc1ccc(CS(=O)(=O)c2ncn[nH]2)cc1	nt	nt	-3	0.5	nt
O=C(Nc1ccc(F)cc1)C(=O)c1c(O)[nH]c2ccc([N+](=O)[O-])cc12	1%	nt	3	0.2	nt
CCOC(=O)C1(Cc2ccccc2)CCN(Cc2cccc(OC)c2O)CC1	-3%	nt	13	-0.3	14
Cc1ccc2c(c1)C(c1ccccc1)N(C(=O)c1ccc(S(=O)(=O)N3CCOCC3)cc1)CC(=O)N2 (stereo not given)	7%	-2	1	-0.5	11
Cc1ccc2c(C)nc(Nc3nc(CSc4nnnn4-c4ccccc4)cc(=O)[nH]3)nc2c1	nt	-13	10	-4.0	-18
Cc1nn(C)cc1CNC(=O)c1cnn2c1NC(c1ccc(Br)cc1)CC2C(F)(F)F (stereo not given)	4%	-24	1	-2.6	-2
N#CC(C(=O)Nc1ccc(Cl)c(Cl)c1)=C1Nc2ccccc2N1	66%	-12	3	-0.5	-5
CC(C)[C@H](NC(=O)c1ccco1)C(=O)NCc1ccccc1	nt	nt	1	-1.0	nt

Reprinted from the part before: two compounds, then new ones.
SMILES	Mtb growth	YopH inh	Mtb bLac sens	RecA intein inh	Arbovirus anti	others
N#CC(C(=O)Nc1ccc(Cl)c(Cl)c1)=C1Nc2ccccc2N1	66%	-12	3	-0.5	-5
CC(C)[C@H](NC(=O)c1ccco1)C(=O)NCc1ccccc1	nt	nt	1	-1.0	nt
O=C(CSc1nc2ccccc2c(=O)n1Cc1ccco1)Nc1cccc(O)c1	nt	nt	-2	1.2	nt
Cc1cccc(NC(=O)COC(=O)c2ccccn2)c1	nt	nt	-3	1.7	nt
COc1ccc(-n2nc3c(c2NC(=O)CCCl)CSC3)cc1	nt	nt	7	0.9	nt
CCCCc1ccc(S(=O)(=O)N/N=C(/C)c2ccncc2)cc1	nt	nt	-8	3.2	nt
CSc1ccc(NC(=O)c2cccnc2)cc1C#N	2%	nt	5	-0.5	8
Cc1ccn(CC(=O)NC2CC(C)(C)Cc3c2cnn3-c2ccc(F)cc2)n1 (stereo not given)	nt	nt	5	1.1	nt
C#Cc1ccc([C@H]2C=C(C(=O)N3CCN(Cc4ccc5c(c4)OCO5)CC3)O[C@@H](OCC)[C@@H]2CCCO)cc1	4%	nt	62	7.8	-15
Cc1nnc(NC(=O)CSc2nnc(C)n2Cc2ccccc2)s1	-13%	-7	-1	1.3	-1
c1ccc2c(N3CCOCC3)nc(-c3ccncc3)nc2c1	-3%	-21	54	2.1	6
CCc1ccc(Nc2nnc(SCC(=O)Nc3sccc3C(N)=O)s2)cc1	10%	-30	47	3.1	12
CCN(C(=O)Cn1c(=O)oc2ccccc21)c1ccc(C)c(C)c1	nt	nt	-4	-1.0	nt
COc1ccc(/C=N/Nc2cc(C)nc3c(C)cccc23)cc1	nt	nt	99	-12	nt
O=C(OCc1ccc(Cl)cc1Cl)c1ccncc1	9%	-21	-3	1.6	5
O=C(Nc1ccccc1N1CCOCC1)c1ccc2nc[nH]c2c1	1%	nt	nt	1.8	-9
O=C(O)c1cc(C(=O)O)cc(-c2ccc(/C=c3/sc4nc5ccccc5n4c3=O)o2)c1	-6%	nt	nt	nt	21
CC(=O)CCSc1nnc(-c2cccc(S(=O)(=O)N3CCOCC3)c2)o1	nt	nt	-7	-0.7	nt
COC(=O)c1ccc(C(=O)OC)c(NC(=S)N2CCN(c3cc(Cl)ccc3C)CC2)c1	-2%	-19	-1	26	8
COc1ccc(NC(=O)CN(c2cc(C)cc(C)c2)S(=O)(=O)c2c(C)n[nH]c2C)cc1	-8%	-13	6	nt	2	Arbovirus anti repeat=-6
Cc1cc(C)nc(NC2=NCCS2)n1	-5%	7	-7	0.4	7
C#CCN1C(=O)S/C(=C\c2ccc(N3CCOCC3)cc2C)C1=O	3%	nt	2	-2.5	-5

Overlap with the part before: 4 compounds, then new ones.
SMILES	Mtb growth	YopH inh	Mtb bLac sens	RecA intein inh	Arbovirus anti	others
COC(=O)c1ccc(C(=O)OC)c(NC(=S)N2CCN(c3cc(Cl)ccc3C)CC2)c1	-2%	-19	-1	26	8
COc1ccc(NC(=O)CN(c2cc(C)cc(C)c2)S(=O)(=O)c2c(C)n[nH]c2C)cc1	-8%	-13	6	nt	2	Arbovirus anti repeat=-6
Cc1cc(C)nc(NC2=NCCS2)n1	-5%	7	-7	0.4	7
C#CCN1C(=O)S/C(=C\c2ccc(N3CCOCC3)cc2C)C1=O	3%	nt	2	-2.5	-5
COC(=O)C1=C(C)N(c2ccc(OC)cc2)C(C)=C(C(=O)OC)C1c1ccc(OC)cc1	-8%	nt	-14	15	nt
CCCCn1c(N)c(NCCC)c(=O)[nH]c1=O	3%	18	-2	-7.4	2
CCN1CC2C3CCC(C)(O3)C2C1 (stereo not given)	-9%	nt	-1	0.9	nt
Cc1ccc(Cl)cc1NC(=O)C1CCCCC1C(=O)O (stereo not given)	1%	nt	-2	-3.4	10
Cc1cc(/C=N/n2cnnc2)c(C)n1-c1ccc(OCc2ccccc2F)cc1	?	-28	94	5.1	-8	Arbovirus anti repeat=5
C/C(=N/NS(=O)(=O)c1ccc(C)c(C)c1)c1c[nH]c2ccccc12	nt	nt	8	0.2	nt
CCCOc1nc2c(c(=O)n(C)c(=O)n2C)n1C	-8%	nt	-2	0.7	nt
CCOC(=O)CNC(=S)N(Cc1ccco1)Cc1ccccc1Cl	nt	nt	2	6.3	nt
Cc1ccc(-c2c[n+](Cc3ccc(Cl)cc3)c3n2CCC3)cc1	-1%	nt	-8	-2.9	nt
CCOC(=O)N1CCN(S(=O)(=O)c2cc(OCC)ccc2OCC)CC1	-7%	-30	1	1.2	5
Cc1ccc(N2C(=O)C(NC(=O)c3ccccc3F)(C(F)(F)F)C3=C2CC(C)(C)CC3=O)cc1 (stereo not given)	1%	-20	3	2.4	-5
CCOc1ccc(C(C(=O)NCC2CCCO2)N(C(=O)c2snc(C(N)=O)c2N)c2ccc(F)cc2)cc1 (stereo not given)	nt	nt	3	-0.5	nt
Cc1cc(NC(=O)c2ccc(Cl)c(S(=O)(=O)N3CCCCC3)c2)no1	nt	nt	-5	1.6	nt
Cc1ccc(NC(=O)CN2C(=O)S/C(=C\c3ccc(-c4cccc(C(=O)O)c4C)o3)C2=O)cc1C	-11%	nt	nt	nt	-9
CCCc1cc(=O)[nH]c(SCC(=O)N2C(C)CCCC2C)n1 (stereo not given)	nt	nt	3	-0.9	nt
O=C(CCN1CCN(c2ccccc2)CC1)N/N=C/c1ccccc1OC(F)F	7%	nt	-2	14	-13
CN1CCc2c(sc(NC(=O)C3COc4ccccc4O3)c2C(N)=O)C1 (stereo not given)	nt	nt	?	-1.6	nt
Cn1nnnc1SCC(=O)NC(=O)c1cccc([N+](=O)[O-])c1	-6%	nt	-9	-3.5	nt
Nc1nccc(-c2cc(-c3ccc(Cl)cc3Cl)no2)n1	-5%	nt	-1	1.0	nt
CNC(=S)N(CCc1ccc(S(N)(=O)=O)cc1)C1CC(=O)N(c2ccccc2F)C1=O (stereo not given)	0%	nt	-10	6.7	-4
Fc1ccccc1C(c1nnnn1Cc1ccc2c(c1)OCO2)N1CCN(Cc2ccccc2)CC1 (stereo not given)	-5%	-1	33	3.1	-8
CCOC(=O)c1sc(N)c(C(=O)Nc2ccccc2OC)c1C	10%	nt	58	3.6	-20
CSc1nc2ccc(NC(=O)c3cc4ccccc4o3)cc2s1	72%	-28	72	nt	3
Cc1cccc(/C=C2/Sc3ccc(C(=O)NCCN4CCCC4)cc3NC2=O)c1	nt	nt	86	3.4	nt
COC(=O)c1c(-c2ccc(C)cc2)csc1NC(=S)NC(=O)c1cc(OC)cc(OC)c1	2%	-21	5	-0.6	13
Cn1c(O)c(/C=C2\C=c3ccccc3=NC2=O)c(=O)n(C)c1=O	nt	nt	4	-5.4	nt
O=c1[nH]c(=S)n(C2CC2)c(O)c1C=NCc1cccnc1	-17%	nt	8	-0.4	nt
COC(=O)c1ccc(NC(=S)NC2CC(C)(C)NC(C)(C)C2)cc1	-11%	-25	1	-1.2	3
Cc1ccc(N=C(N)N=C(N)N)c(C)c1	-1%	nt	-2	-0.2	nt
CCOc1cc(/C=C2\SC(=O)N(c3ccc(O)cc3)C2=O)ccc1O	-1%	nt	2	3.2	nt
CC(C)C1Oc2ccccc2N(CC(=O)N(Cc2ccccn2)CC2CCCO2)C1=O (stereo not given)	-5%	-24	2	0.5	1
CC(=O)N1C(O)CC(C)N1c1ccccc1 (stereo not given)	0%	-26	10	12	-5
CCN(CC)CCN1C(=O)C(O)=C(C(=O)c2ccc(C)o2)C1c1ccccn1 (stereo not given)	2%	-21	3	nt	nt
Cc1cccc(NC(=S)N/N=C/c2cccc(O)c2)c1C	-5%	nt	-7	-1.0	nt
Cn1c(=O)c2c(nc(CN3CCN(CCO)CC3)n2Cc2cccc3ccccc23)n(C)c1=O	1%	-21	3	-2.2	-19
Cc1ccn2c(=O)nc(SCC(=O)OCc3ccccc3)nc2c1	nt	nt	2	-0.3	nt
S=c1nc(-c2ccc(Br)cc2)oc2c1CCCC2	nt	-7	1	1.7	10
Cc1ccc(S(=O)(=O)/C(C#N)=C/c2c(Oc3ccc(Cl)cc3)nc3c(C)cccn3c2=O)cc1	-6%	-9	-8	-0.2	17
O=C(c1ccc(F)cc1)C1CCN(C(=O)Nc2ccc(F)cc2)CC1	-6%	-18	8	0.4	14
CCN1CCN(Cc2ccc(NC(=O)Nc3cccs3)cc2)CC1	-5%	-9	-8	-0.5	4
O=C(NCCN1CCOCC1)c1ccc(/C=C2\Sc3ccccc3N(Cc3ccccc3F)C2=O)cc1	nt	nt	1	1.3	nt
Nc1c(Cl)ncnc1N1CCOCC1	-8%	-30	0	-1.0	-1
COc1ccc(-n2nc3c(c2NC(=O)COc2ccccc2F)CS(=O)(=O)C3)cc1	nt	nt	-11	3.0	nt
Cc1cccc(-n2c(N)cc(=O)nc2SC(C)C(=O)NC2CCCCC2)c1 (stereo not given)	6%	-59	nt	nt	-4
Cc1nc(N2CCN(C)CC2)c2sc(=S)n(-c3ccccc3)c2n1	-1%	1	-4	1.0	1	Arbovirus anti repeat=1
Cc1ccc(NC(=O)C(=O)NCCOc2ccc(Cl)cc2)c(C)c1	8%	-15	10	2.6	-2
Cc1ccc(C)c(C(=O)CSc2n[nH]c(C)n2)c1	-11%	-6	0	2.5	0	Arbovirus anti repeat=-8
C=CCC(C#Cc1ccccc1)[N+](C)(C)CC=C (stereo not given)	5%	-9	-2	-2.4	14
CCOC(=O)C1(C)C=C(Nc2ccc(OC)cc2)C(=O)N1c1ccc(OC)cc1 (stereo not given)	84%	-27	-1	-1.9	-3
Cc1nnc(NC(=O)CSc2ccc3nnc(-c4ccccn4)n3n2)s1	-3%	nt	-4	-1.7	15
Cc1ccc(Cc2nc3ccccc3[nH]2)cc1	nt	nt	9	2.6	nt
CN(C(=O)COC(=O)/C=C/c1cccc([N+](=O)[O-])c1)C1CCS(=O)(=O)C1 (stereo not given)	-6%	nt	-1	-0.5	nt
CCOc1ccc(C(=O)Nc2ccc(-c3cc4ccccc4oc3=O)c(C)c2)cc1[N+](=O)[O-]	0%	-31	-2	1.7	-14
